Beta cell apopt: inhibitors of cytokine-induced beta cell apoptosis, primary screen, luminescence. INS-1E cytokine-induced death, ATP luminescence, 48 h; percent of positive-control rescue, neutral wells zero. protection from apoptosis, % (concentration not given with the values). 0.8% of 300,000 active. AID 435005, 2010;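 active = all replicates at 75% or more, or half of them and the mean; inconclusive = half reach 75% but not the mean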;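 note: 0% = cytokine-treated negative control wells and 100% = positive control rescue; higher means more ATP so stronger rescue from cytokine killing; wells of about 40 µL received 100 nL stock; the first replicate is given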
Bfl-1 A1 inh: caspase 3/7 activation in MEF A1-2A-BIM cells, primary screen, A1 inhibitor project, cell-based, luminescence, HTS | 0.066% of 330,000 active | AID 2462, 2010 | caspase activation, % (no concentration beside the values) | Caspase-Glo 3/7 luminescence, 3 h; percent of clofoctol response, vehicle zero;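 active = over half of replicate activation scores above 10%, or exactly half above 10 with the replicate mean above 10; inconclusive = replicate mean below 10 yet half the replicates above 10; inactive = over half of replicates below 10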;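 note: wells of about 30 µL received 50 nL stock; many hits fall short of the cut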
E coli growth: E. coli growth inhibition, primary screen, OD600 | OD600 absorbance (no concentration beside the values) | 0.21% of 330,000 active | Escherichia coli growth, 23 h; hits give low values;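 active = OD600 absorbance below the run mean of sample wells minus 3.6 SD, in any replicate, cut at about 0.56 in these data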;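 note: stock transfer was 300 nL into about 60 µL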
T cruzi repl: inhibitors of intracellular T. cruzi growth, primary screen, luminescence, NIH3T3 host cells | inhibition, % (test concentration not listed) | T. cruzi beta-gal in NIH3T3, 90 h | 1.4% of 300,000 active;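 active = mean inhibition across valid replicates above about 55%, limit read from the data; inconclusive = mean below that limit but half or more replicates reach it; inactive = mean below it, under half of replicates reach it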;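 note: signal also drops with host cell toxicity which is not excluded here; 0% = plate median of DMSO wells and 100% = zero luminescence signal; higher percent means less beta-gal luminescence so fewer parasites; stock transfer was 50 nL into about 50 µL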
UCH37 DUB inh: inhibitors of human UCH37 deubiquitinase, primary screen, biochemical, Ub-AMC cleavage, fluorescence; inhibition, % (no concentration beside the values); purified proteasome/UCH37; Ubiquitin carboxyl-terminal hydrolase isozyme L5 (Homo sapiens), Q9Y5K5; AID 588478, 2011; 0.33% of 330,000 active;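 active = mean of two replicates above 20%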;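 note: 0% = compound-free wells with enzyme and 100% = wells lacking proteasome; stock transfer was 100 nL into about 20 µL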
Target sequence (Q9Y5K5 whole entry, looked up): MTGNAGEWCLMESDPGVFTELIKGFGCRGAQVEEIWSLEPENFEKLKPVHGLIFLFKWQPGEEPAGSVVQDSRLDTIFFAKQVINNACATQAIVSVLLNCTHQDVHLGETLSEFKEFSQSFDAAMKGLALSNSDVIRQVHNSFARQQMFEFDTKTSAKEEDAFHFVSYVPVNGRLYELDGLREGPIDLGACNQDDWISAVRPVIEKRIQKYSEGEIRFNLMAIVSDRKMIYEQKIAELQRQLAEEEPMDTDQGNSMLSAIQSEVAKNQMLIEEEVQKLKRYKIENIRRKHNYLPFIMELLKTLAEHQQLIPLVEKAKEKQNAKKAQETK
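Schedule: 30 min plus 25 min, room temperature / Material: human UCH37 within purified proteasomes / Technique: AMC fluorescence intensity at 355/460 nm / Buffer or medium: pH 7.4 Tris-HCl (50 mM) with ovalbumin, ATP-MgCl2, DTT / Controls: wells without proteasome as full block, compound-free enzyme plus substrate as uninhibited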
rRNA inh HTS: reduced GFP signal of wild-type E. coli, primary screen, bacterial rRNA inhibitor project, GFP/RFP fluorescence, OD600, single point; E. coli WT GFP vs humanized-ribosome RFP mutants, 24 h; hits give low values; DMSO median 0, no signal -100; GFP signal change (wild-type ribosome), % (no concentration beside the values); 1.6% of 350,000 active; AID 720706, 2013;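 active = significant combined selectivity score with lowered wild-type GFP, culture density cut under 30%, mutant RFP and density less affected; inactive = any of these conditions unmet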; note: one replicate is shown; some compounds called inactive have numbers as strong as hits
FGF22 binding: binders of human FGF22 protein, primary screen, FGF22 synaptogenesis inhibitor project, biophysical, thermal shift, single point. AID 651658, 2012. Fibroblast growth factor 22 (Homo sapiens), Q9HCT0. calls only at 9.99 µM. 1.5% of 340,000 active. recombinant FGF22 thermal shift, SYPRO orange fluorescence; percent of sucrose octasulfate shift, DMSO zero;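 active = melting point raised past a set limit in the mean and every replicate; inconclusive = no clear call; three in four hits are not shown here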
Target sequence (Q9HCT0 whole entry, looked up): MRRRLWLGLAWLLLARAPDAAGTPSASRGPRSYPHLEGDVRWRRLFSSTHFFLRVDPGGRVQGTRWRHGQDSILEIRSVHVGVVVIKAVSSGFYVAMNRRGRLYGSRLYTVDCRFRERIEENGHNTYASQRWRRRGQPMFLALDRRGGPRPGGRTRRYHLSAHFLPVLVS
MLL AF4-AF9 inh: inhibitors of AF4 peptide binding to AF9, primary screen, biochemical, AlphaScreen, biotin-AF4 peptide, FLAG-AF9, single point; Protein AF-9 (Homo sapiens), P42568; inhibition, % at 10 µM; 0.47% of 350,000 active; AID 651704, 2012;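 active = every replicate reaching a set inhibition limit, whatever the replicate mean, cut at about 25% in these data; inconclusive = mean inhibition reaches that limit but some replicates miss it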;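 note: 0% = plate neutral control median and 100% = total signal loss; the record names both 10 and 1 µM as test concentration; the first replicate is given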
Target sequence (P42568 whole entry, looked up): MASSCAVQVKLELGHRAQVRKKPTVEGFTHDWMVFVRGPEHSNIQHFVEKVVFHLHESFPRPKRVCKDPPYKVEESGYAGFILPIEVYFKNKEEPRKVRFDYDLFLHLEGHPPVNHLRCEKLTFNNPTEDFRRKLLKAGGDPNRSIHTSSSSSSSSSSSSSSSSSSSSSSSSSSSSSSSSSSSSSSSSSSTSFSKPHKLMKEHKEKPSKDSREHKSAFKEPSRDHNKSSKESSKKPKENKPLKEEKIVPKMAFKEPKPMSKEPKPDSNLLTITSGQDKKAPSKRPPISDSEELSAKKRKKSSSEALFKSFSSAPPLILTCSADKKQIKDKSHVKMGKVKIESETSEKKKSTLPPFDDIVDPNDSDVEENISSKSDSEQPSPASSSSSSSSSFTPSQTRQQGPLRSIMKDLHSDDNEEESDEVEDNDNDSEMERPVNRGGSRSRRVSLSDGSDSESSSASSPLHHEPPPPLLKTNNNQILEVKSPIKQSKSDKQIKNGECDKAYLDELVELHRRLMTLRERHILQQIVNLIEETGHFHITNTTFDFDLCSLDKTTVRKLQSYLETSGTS
rRNA inh HTS OD600: further read-out of rRNA inh HTS, marked with its call; OD600 change, %; measured here: OD600 growth;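 optical density of the mix in the first replicate; 0 = DMSO median and -100 = no signal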
rRNA inh HTS RFP: also measured in rRNA inh HTS; calls as there; RFP signal change, %; measured here: RFP humanized mutant strains;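 first replicate; 0 = DMSO median and -100 = no signal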
An asterisk follows results filed as active; i = inactive; ? = inconclusive; nt = no result given. Some of the compounds tested; rates above refer to the full screens.

SMILES | Beta cell apopt | Bfl-1 A1 inh | E coli growth | T cruzi repl | UCH37 DUB inh | rRNA inh HTS | rRNA inh HTS OD600 | rRNA inh HTS RFP | FGF22 binding | MLL AF4-AF9 inh
COc1ccc(NC(=O)C2C3C=CC(C3)C2C(=O)O)cc1 (centres undefined) | 1 | 0.2 | 0.71 | -8 | 2.2 | 17 | 18 | 12 | i | 0.7
CC(C)C[C@H](NC(=O)N1CCCCCC1)C(=O)O | 1 | 0.1 | 0.67 | -3 | 2.2 | 12 | 7 | -2.9 | i | -0.5
COc1cc(OC)cc(-c2nnc(SCc3cccc(C(=O)O)c3)o2)c1 | 2 | -0.4 | 0.7 | -24 | 2.6 | nt | nt | nt | nt | nt
CCN(c1cccc(C)c1)S(=O)(=O)c1ccc2c(c1)oc(=O)n2C | nt | 0.3 | 0.64 | 7 | 0.8 | -7 | -5 | 1.4 | i | 2.8
O=c1c(C(c2ccc(Cl)cc2)c2c(O)nc3n(c2=O)CCS3)c(O)nc2n1CCS2 | -4 | 0.5 | 0.67 | -16 | 3.8 | 4 | -1 | -1.7 | i | -5.1
COCCCNC(=O)Cn1cnc2sc(C)c(S(=O)(=O)N3CCN(c4ncccn4)CC3)c2c1=O | nt | 0.0 | 0.7 | -7 | 2.3 | 11 | 10 | 1.5 | nt | -8.3
Cc1ccccc1NC(=S)N(Cc1cccs1)C1CCCCC1 | 1 | -0.2 | 0.7 | 7 | -1.4 | -9 | 10 | 1.2 | i | -0.4
CCC(C)NC(=O)Cn1nc(C(F)(F)F)c2c1CCCC2 (centres undefined) | -5 | -0.2 | 0.68 | -13 | 2.0 | nt | nt | nt | nt | nt
CCn1cc(C(=O)N2CCN(c3ccc([N+](=O)[O-])cc3)CC2)c(=O)c2ccc(C)nc21 | 1 | 0.2 | 0.72 | -21 | 9.3 | -9 | 1 | -5.5 | i | 2.9
CCS(=O)(=O)Nc1cccc(C(=O)CC2(O)C(=O)Nc3ccccc32)c1 (centres undefined) | nt | 0.6 | 0.71 | -4 | 2.1 | nt | nt | nt | nt | nt
CC(C)Oc1ccc(C(CC(=O)O)NC(=O)c2cccs2)cc1 (centres undefined) | 5 | -0.1 | 0.62 | 7 | 1.5 | nt | nt | nt | nt | nt
CCOc1ccc2nc(N3CCCC(C(=O)N4CCN(CC)CC4)C3)sc2c1 (centres undefined) | 7 | -0.1 | 0.7 | -4 | 4.2 | -2 | 0 | 0.9 | i | -0.8
Cc1ccc(-n2ncc3c(NNC(=O)Cc4ccccc4)ncnc32)cc1 | -2 | -0.9 | 0.73 | 6 | 3.5 | 20 | 12 | -1.0 | i | 3.3
O=C1CC(c2cccs2)c2cc3c(cc2N1)OCO3 (centres undefined) | -3 | 1.6 | 0.69 | -2 | 4.3 | nt | nt | nt | nt | nt
Cc1cccc(C)c1NC(=O)CCS(=O)(=O)c1cccc2nsnc12 | 2 | 0.6 | 0.68 | -8 | 5.4 | nt | nt | nt | nt | nt
NC(=O)Cc1ccc(Nc2nnc(-c3ccc(O)cc3)c3ccccc23)cc1 | -7 | -0.4 | 0.69 | -6 | -1.0 | -12 | -8 | 0.2 | i | 0.4
COc1ccc(S(=O)(=O)N2CCCOC2CNC(=O)C(=O)NCCc2ccco2)cc1 (centres undefined) | 2 | 0.2 | 0.69 | 2 | -2.8 | nt | nt | nt | i | 0.3
O=C(COC(=O)CNC(=O)c1ccc(Cl)cc1)Nc1ccc(Cl)cc1C(F)(F)F | 0 | 0.0 | nt | -28 | -1.4 | nt | nt | nt | nt | nt
N/C(=N\OC(=O)C1CCCCC1)c1ccc(Br)cc1 | nt | 0.1 | 0.69 | -17 | 0.7 | -8 | -2 | -4.5 | i | -0.7
O=c1[nH]c(Nc2nc3ccccc3o2)nc2c1CCCC2 | 42 | -4.4 | 0.71 | 60* | -18 | 15 | 10 | 2.4 | i | 3.7

Entries of single compounds, quoted from the list.
Entry for NC(=O)Cc1ccc(Nc2nnc(-c3ccc(O)cc3)c3ccccc23)cc1 → Beta cell apopt: -7; Bfl-1 A1 inh: -0.4; E coli growth: 0.69; T cruzi repl: -6; UCH37 DUB inh: -1.0; rRNA inh HTS: -12; rRNA inh HTS OD600: -8; rRNA inh HTS RFP: 0.2; FGF22 binding: i; MLL AF4-AF9 inh: 0.4
Entry for CCN(c1cccc(C)c1)S(=O)(=O)c1ccc2c(c1)oc(=O)n2C → Beta cell apopt: nt; Bfl-1 A1 inh: 0.3; E coli growth: 0.64; T cruzi repl: 7; UCH37 DUB inh: 0.8; rRNA inh HTS: -7; rRNA inh HTS OD600: -5; rRNA inh HTS RFP: 1.4; FGF22 binding: i; MLL AF4-AF9 inh: 2.8

(list continues)
SMILES | Beta cell apopt | Bfl-1 A1 inh | E coli growth | T cruzi repl | UCH37 DUB inh | rRNA inh HTS | rRNA inh HTS OD600 | rRNA inh HTS RFP | FGF22 binding | MLL AF4-AF9 inh
Cc1ccc(CN2CCN(Cc3cccc(-n4cccn4)c3)CC2CCO)cc1 (centres undefined) | 6 | -1.0 | 0.7 | 10 | 1.1 | 3 | -2 | -0.1 | i | 0.5
CSc1ccc(C2c3[nH]c4ccccc4c3CCN2C(=O)c2ccnn2C)cc1 (centres undefined) | -2 | -2.5 | 0.72 | 20 | 5.2 | -2 | -4 | 1.4 | i | 2.7
O=C(CN1C(=O)CSC1=O)Nc1ccc(F)c(F)c1F | -1 | 0.9 | 0.73 | -16 | 1.0 | nt | nt | nt | nt | nt
CCCC1C(=O)Nc2ccccc2N1C(=O)c1ccc(C(C)(C)C)cc1 (centres undefined) | 8 | -0.4 | 0.69 | 24 | 1.6 | -21 | -56 | 6.7 | i | 11
CCC[C@@H]1C[C@@]1(CCC)[C@@H](NP(=O)(c1ccccc1)c1ccccc1)c1ccc(C(=O)OC)cc1 | nt | 0.4 | nt | 44 | 5.4 | 8 | 12 | 3.7 | i | nt
Cc1ccccc1Cn1nnc(-c2ccc3c(c2)OCO3)n1 | -4 | 0.0 | 0.7 | -10 | -0.9 | nt | nt | nt | nt | nt
Cc1ccc2c(c1)C(O)(c1c(C)[nH]c3ccccc13)C(=O)N2 (centres undefined) | 8 | -0.5 | 0.71 | -8 | 0.7 | nt | nt | nt | nt | nt
O=C1N/C(=C/c2ccsc2)C(=O)N1c1ccccc1 | -1 | -0.9 | 0.72 | -99 | 2.5 | 13 | 13 | 1.8 | i | -1.6
CC1CCCC(C)N1CCCNC(=O)C(=O)Nc1ccc2nc3n(c(=O)c2c1)CCCCC3 (centres undefined) | -10 | -0.7 | 0.71 | 20 | -1.2 | 2 | 5 | -0.5 | i | -3.8
CC(=O)c1cccc(NC(=S)NC(=O)Cc2ccccc2)c1 | -12 | 1.1 | 0.71 | 2 | 1.7 | -6 | -14 | -1.4 | i | -0.2
O=C(Nc1ccc(F)cc1)c1cccc(N2C(=O)c3ccccc3C2=O)c1 | -8 | 0.4 | 0.67 | -18 | 5.7 | 9 | 26 | -1.5 | i | -17
Cc1nn2c(N3CCN(C)CC3)c3c(nc2c1-c1ccccc1)CCCC3 | 1 | 0.5 | 0.7 | 29 | 4.5 | 2 | -1 | 4.1 | i | 7.0
CN(CCC#N)C(=O)COC(=O)C1c2ccccc2Oc2ccccc21 | -9 | 1.1 | 0.65 | -14 | -0.1 | -4 | -15 | -0.8 | i | -2.1
CCOc1ccc(N2C(=O)c3cccnc3C2Nc2ccc(Cl)cc2)cc1 (centres undefined) | 1 | 1.5 | 0.69 | 12 | 4.4 | -33 | -36 | 4.3 | i | ?
CN(Cc1ccccc1)C(=O)COC(=O)C1CCN(S(=O)(=O)c2ccc3c(c2)OCCO3)CC1 | -10 | 1.6 | 0.66 | -1 | 3.8 | -3 | -3 | 3.4 | i | -1.4
CC(CN1CCCCC1)OC(=O)c1ccccc1F (centres undefined) | -4 | -0.2 | 0.71 | -2 | -0.2 | 19 | 14 | -2.2 | nt | 1.4
Cc1ccc2c(c1)COc1c3ccc(C(=O)N4CCOCC4)cc3nn1-2 | 11 | -8.3 | 0.7 | -5 | -12 | -24 | -21 | -3.5 | i | -3.2
COc1ccc(C(=O)N2CCC(C(=O)N3CCN(c4ccccc4)CC3)CC2)cc1 | -3 | 1.7 | 0.67 | 10 | 3.7 | 2 | -1 | 1.4 | i | -0.4
CCOC(=O)N1CCN(S(=O)(=O)c2ccc3c(c2)NC(=O)CO3)CC1 | nt | nt | 0.67 | nt | 0.5 | 8 | 3 | 0.2 | i | -0.9
Cc1ccc2cc(CCNC(=O)CCCc3ccccc3)c(=O)[nH]c2c1C | nt | -0.1 | 0.66 | 2 | 2.1 | 16 | 19 | 3.9 | i | -2.4
NC(=O)[C@@H]1CCCNc2c(F)cc([N+](=O)[O-])cc2C(=O)N[C@@H](CO)C(=O)N[C@@H](Cc2ccc(O)cc2)C(=O)N1 | 1 | 1.4 | nt | 3 | 7.3 | -5 | 11 | -2.5 | i | -1.0
COc1cc2ccccc2cc1C(=O)N1CCN(C)CC1 | -7 | -0.3 | 0.71 | -3 | -19 | 11 | 12 | 6.2 | i | 3.7
CCCOC1OC(=O)c2c1ccc(OC)c2OC (centres undefined) | 3 | 0.7 | 0.67 | -7 | 1.7 | 12 | 15 | 4.6 | i | 1.8
CC1CCCCN1C(=O)C(Cc1ccccc1)N1C(=O)C2CCCCC2C1=O (centres undefined) | 6 | -0.8 | 0.7 | -22 | 3.0 | 2 | 9 | 0.3 | i | 0.6
CCC(=O)N(Cc1ccco1)C1CC(=O)N(c2ccccc2)C1=O (centres undefined) | -2 | 0.6 | 0.69 | -2 | 3.5 | 9 | 4 | -2.1 | i | 2.0
O=C(NCCc1c[nH]c2ccccc12)C(=O)NCC1OCCCN1S(=O)(=O)c1cc(F)ccc1F (centres undefined) | -6 | -0.1 | 0.71 | -11 | 0.7 | nt | nt | nt | nt | 3.1
CSc1cc(-c2ccc(Cl)cc2)[nH]c(=O)c1C#N | -5 | -0.2 | 0.71 | -1 | -7.6 | -4 | 11 | -1.9 | i | -0.7
COC(=O)c1ccccc1NC(=O)Cn1ccnc1 | -2 | -0.5 | 0.72 | -10 | -2.1 | nt | nt | nt | nt | nt
O=C(Nc1cc2ccccc2oc1=O)C1CCCCC1 | 1 | 1.1 | 0.63 | -1 | -7.8 | nt | nt | nt | nt | nt
